Compound activity: PubChem BioAssay, several laboratories
eIF4H FP inh: human eIF4H binding inhibitors, primary screen, translation initiation inhibitor project, biochemical, uHTS, fluorescence polarization; Eukaryotic translation initiation factor 4H (Homo sapiens), Q15056; 290,000 compounds, 0.94% hits; eIF4H fluorescence polarization binding assay; inhibition, % at 35 µM;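 active means 50% or more with normal probe brightness, or confirmed in later tests; inconclusive means above 50% with abnormal brightness, or retests that disagree; inactive means below 50% or failed in later tests; about a fifth of its hits are not listed in these tables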;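 further: calls also rest on retests at 20 µM and on dose response follow-up; 0% = protein and probe with vehicle and 100% = probe without protein; strong numbers were not always called active; many hits fall short of the cut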
PABP polyA inh: PABP poly(A) RNA binding inhibitors, primary screen, biochemical, fluorescence polarization, uHTS; Polyadenylate-binding protein 1 (Homo sapiens), P11940; inhibition, % at 35 µM; 290,000 compounds, 1% hits;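 active means 50% or more with normal probe brightness, or confirmed in later tests; inconclusive means above 50% with abnormal brightness, or retests that disagree; inactive means below 50% or failed in later tests; about a fifth of its hits are not listed in these tables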;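 further: calls also rest on retests at 20 µM and on dose response follow-up; controls were probe without protein and protein plus probe with vehicle; some compounds called inactive have numbers as strong as hits; many hits fall short of the cut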
Target sequence (P11940 whole entry, looked up): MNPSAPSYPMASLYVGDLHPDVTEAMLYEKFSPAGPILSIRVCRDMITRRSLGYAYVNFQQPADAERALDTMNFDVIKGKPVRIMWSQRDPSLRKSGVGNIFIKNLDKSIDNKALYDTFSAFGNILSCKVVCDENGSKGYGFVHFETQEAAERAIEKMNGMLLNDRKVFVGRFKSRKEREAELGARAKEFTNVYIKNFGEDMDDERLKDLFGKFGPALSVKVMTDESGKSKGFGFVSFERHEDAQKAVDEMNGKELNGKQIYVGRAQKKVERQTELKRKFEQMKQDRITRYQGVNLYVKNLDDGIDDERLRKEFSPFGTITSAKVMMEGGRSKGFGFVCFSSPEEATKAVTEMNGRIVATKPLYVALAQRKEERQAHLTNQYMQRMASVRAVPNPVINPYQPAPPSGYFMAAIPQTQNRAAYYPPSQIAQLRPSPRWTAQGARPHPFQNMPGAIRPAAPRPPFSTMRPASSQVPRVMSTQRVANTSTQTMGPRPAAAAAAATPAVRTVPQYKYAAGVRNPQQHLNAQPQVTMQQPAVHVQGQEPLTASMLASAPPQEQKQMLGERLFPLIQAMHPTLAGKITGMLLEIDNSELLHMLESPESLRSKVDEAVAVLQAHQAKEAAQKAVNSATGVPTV
CSC inhib: cancer stem cell viability inhibitors, primary screen, luminescence; cancer stem cell-like cells viability; AID 2717, 2010; inhibition, % at 7.5 µM; 300,000 compounds, 1.1% hits;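 active means mean at 75% or more and at least half the replicates too; inconclusive means mean and replicates disagree; tested in HMLE shEcad cells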;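 further: 0% = median of negative and 100% = median of positive control wells; the first replicate is given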
HIV Env fusion: inhibitors of HIV-1 Env-driven cell-cell fusion, primary screen, HeLa-JRFL effector, CEM21 target cells, luciferase. inhibition, % at 12.3 µM. 360,000 compounds, 1.1% hits. AID 651610, 2012;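 active means mean replicate inhibition score of at least 50 and every replicate individually at or above 50; inconclusive means only one of the two criteria met; inactive means mean below 50 and not all replicates reaching 50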;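 further: 0% = plate neutral controls and 100% = maraviroc near 300 nM; one replicate is shown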
Rce1 inhib: yeast Rce1p protease inhibitors, primary screen, biochemical, fluorescence, cell-free homogeneous. CAAX prenyl protease 2 (Saccharomyces cerevisiae (strain ATCC 204508 / S288c)), Q03530. yeast membranes, quenched prenylated peptide cleavage fluorescence. calls only. 290,000 compounds, 0.27% hits;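 active means fall in fluorescence gain of 50% or more versus controls, with final raw signal at or below 3038400; inconclusive means same 50% fall but final raw signal above 3038400; inactive means fall in fluorescence gain under 50%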;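 further: plate controls were neutral control wells for no effect and wells lacking membranes for full effect; tested at 10 µM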
MT1-MMP act inh: blockers of MT1-MMP proenzyme processing, primary screen, HT1080 RFP-PRO-GFP cells, GFP/RFP fluorescence; GFP/RFP ratio change, % at 20 µM; 360,000 compounds, 0.061% hits; Matrix metalloproteinase-14 (Homo sapiens), P50281; GFP/RFP ratio fluorescence, overnight; percent of plate control window, DMSO zero; AID 651647, 2012;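 active means GFP/RFP ratio change of at least 30% with cell ATP level not reduced by more than half and red fluorescence within 50% of control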; further: strong numbers were not always called active
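Compound: 20 µM single dose, 1% DMSO / System: HT1080 RFP-PRO-GFP cells / Controls: DMSO and RFP-L50D-GFP cell wells / Read-out basis: GFP/RFP fluorescence ratio / Schedule: overnight compound exposure at 37 °C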
UUG fidelity: modulators of yeast start codon fidelity, primary screen, whole organism, S. cerevisiae, single point, plate reader | activity score, % at 18.7 µM | 350,000 compounds, 0.13% hits | S. cerevisiae UUG-firefly luciferase reporter, luminescence/redox ratio | AID 602363, 2012;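 active means replicate mean at a twofold rise or more, about +100% in these data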;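 further: firefly luciferase made from a UUG start codon reports start codon fidelity; reporter light over untreated wells divided by growth signal over untreated wells; some hits fall short of that in this replicate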
eIF4H FP inh retest: also measured in eIF4H FP inh; calls as there; inhibition, %; compound at 20 µM; confirmation average;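 mean of two retest wells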
PABP polyA inh retest: also measured in PABP polyA inh; calls as there; inhibition, %; compound at 20 µM; confirmation repeats;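 mean of two retest wells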
MT1-MMP act inh RFP: recorded beside MT1-MMP act inh, whose call it bears; RFP signal change, %; measured here: RFP expression control read;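 0 = vehicle wells; hits needed this value within 50% of zero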
* = called active by the depositor; i = inactive; ? = inconclusive; · = no result given. This is a random part of the collection (roughly 2.9% active in at least one column).

SMILES	eIF4H FP inh	PABP polyA inh	CSC inhib	HIV Env fusion	Rce1 inhib	MT1-MMP act inh	MT1-MMP act inh RFP	UUG fidelity	others
CC(=O)c1cccc(NC(=O)c2ccoc2C)c1	2	2	-3	34	i	3	9	·
Cc1sc2ncn(CC(=O)NCC(=O)N3CCN(c4ccccc4F)CC3)c(=O)c2c1C	-12	-13	-8	4	i	1	-2	-15
COC(=O)C1=C(C(=O)OC)C2(OC1c1ccccc1C)C(=O)c1ccccc1C2=O (configuration not stated)	-2	-4	-22	·	i	-2	7	·
CC(C)CN(C(=O)COC(=O)Cc1ccc(Cl)cc1)c1c(N)n(Cc2ccccc2)c(=O)[nH]c1=O	·	·	4	-1	i	-2	-3	-15
CSc1nccc(NC(=O)c2ccc(C(C)(C)C)cc2)n1	-11	0	-1	-8	i	-7	-29	·
COc1cccc(C(=O)Nc2cccc(-c3ccc(N4CCOCC4)nn3)c2)c1	·	·	·	-23	i	0	-1	·
CCc1nnc(NC(=O)c2ccc(-c3ccc(C(C)=O)cc3)o2)s1	·	·	2	·	·	10	-2	12
COc1ccccc1CNC(=O)c1cn(C)c2ccc(S(=O)(=O)N3CCCC3)cc2c1=O	-2	-6	-9	5	i	1	0	·
COc1ccc(Nc2nc(C)nc3sc4c(c23)CCC4)cc1O	7	-12	6	-3	i	3	-2	-6
O=S(=O)(N/N=C/c1ccc2c(c1)OCO2)c1ccc(Br)cc1	1	9	7	-11	i	-6	2	-4
Cc1cc(OCC(=O)Nc2ncn[nH]2)ccc1Cl	·	·	5	-31	·	4	3	-14
CCN1CCN(C(=O)Cn2c(=O)sc3ccccc32)CC1	-7	-2	·	-2	i	1	3	-1
Nc1nc(-c2ccccc2Br)cs1	-2	1	11	·	i	18	-3	-11
C=CC1=CCN(S(=O)C(C)(C)C)[C@@H]1CCO (some centres not stated)	·	·	·	-6	·	-1	-3	1
Cc1ccc(OCCNC(=O)CCc2ccccc2)cc1C	·	·	-3	11	i	4	-1	-5
O=c1c2ccccc2ncn1CCCCOc1ccc(Br)cc1	-3	-8	-9	-1	i	0	-1	·
Cc1ccc(S(=O)(=O)NC(C)(C)C)cc1C(=O)OC(C)C(=O)NC1CC1 (configuration not stated)	·	·	-1	-5	i	6	2	·
O=C(NCc1ccco1)c1ccccc1NS(=O)(=O)c1ccc(Br)s1	2	4	26	-25	i	0	-4	-4
COc1ccc(CCN2C(=O)NC(NC(=O)C(C)(C)C)(C(F)(F)F)C2=O)cc1OC (configuration not stated)	4	13	-1	-17	i	-1	4	-24
O=C(O)c1ccccc1CSc1nnc2c(n1)[nH]c1ccccc12	4	6	-5	-21	i	-2	2	-17
Cc1ccc(NS(=O)(=O)c2ccc(NC(=O)CSc3ccc(Cl)cc3)cc2)c(C)c1	6	3	13	13	i	-2	-10	-1
CN(c1nc(-c2ccc(Br)cc2)cs1)C1CCS(=O)(=O)C1 (configuration not stated)	-1	96	15	3	i	-3	-8	-4	eIF4H FP inh retest=-13;PABP polyA inh retest=0
COc1cccc(CC2(CO)CCCN(Cc3cn[nH]c3-c3ccccc3)C2)c1 (configuration not stated)	-6	-4	·	-7	i	-7	1	·
COc1ccc(NC(=O)CN(C)C(=O)Cc2c[nH]c3ccccc23)cc1	·	·	-17	3	·	2	4	-7
CC(C(=O)NCc1ccccc1)N1C(=O)CN(C)C(=O)c2ccccc21 (configuration not stated)	-9	-8	-4	·	i	4	2	-13
Cn1c(=O)c(-c2ccccc2[N+](=O)[O-])c(Cl)c2ccccc21	0	1	-14	18	i	0	-1	-8
O=C(C1CCC(=O)N1Cc1ccccc1Cl)N1CCN(c2cccc(Cl)c2)CC1 (configuration not stated)	-20	-7	6	·	i	-1	-6	3
Cn1ccnc1SCC(=O)Nc1cccc2ccccc12	0	-8	27	-83	i	-2	0	-6
COc1cc(C)c(Br)cc1S(=O)(=O)NCCN1CCOCC1	-8	0	-9	11	i	-1	1	·
O=C1CC(c2ccccc2Cl)C2=C(COC2=O)N1 (configuration not stated)	8	1	-2	-61	i	3	0	-7
O=C(NC1CCCC1)C1C2C=CC3(CN(Cc4cccs4)C(=O)C13)O2 (configuration not stated)	-7	10	0	9	i	2	5	-8
COc1ccc(OCC(=O)Nc2ccc3c(c2)nc(CCN2CCN(c4ccccn4)CC2)n3C)cc1	·	·	·	29	·	2	-14	-22
O=C(CSc1ncccc1-c1nc2ccccc2[nH]1)NC1CC1	-3	0	3	-1	i	6	4	-2
N=c1c2c3c(sc2ncn1Nc1ccccc1)CCC3	31	19	39	11	i	2	13	-11
CCOC(=O)NC(=O)CSc1nnc(C2CC2)n1Cc1ccco1	-1	1	-9	7	i	-2	2	·
CC(=O)Oc1cccc(N2C(=O)c3ccccc3C2=O)c1	-2	-4	-2	·	i	-3	3	·
COCCNC(=O)C1(C)CCCN(Cc2cccc(OC(=O)c3ccccc3)c2)C1 (configuration not stated)	·	·	·	-72	·	-1	2	-12
CC1CN(C(=S)Nc2ccccc2C(F)(F)F)CC(C)O1 (configuration not stated)	-3	0	-22	17	i	1	-1	-24
Cc1ccc(C2=[N+]([O-])C3(CCCCC/C3=N\O)N(O)C2(C)C)o1 (configuration not stated)	3	-1	-12	·	i	-1	6	-17
Cn1cccc1C(=O)NCC1CCCCC1	-7	7	12	-1	i	-2	0	6
Cc1ccc(NC(=S)NN(C)c2cc(C)nc(C)n2)cc1	-7	10	0	·	i	-3	-6	-18
COc1ccc(C(=O)NCCc2nnc3ccc(SCC(=O)NCc4ccccc4)nn23)cc1	15	4	-16	7	i	2	2	-13
COCCN(C(=S)Nc1cccc(OC)c1)C1CCN(C(C)=O)CC1	4	-1	0	19	i	-1	-3	·
COc1ccc(C2C3C(=O)N(N(C)c4ncc(C(F)(F)F)cc4Cl)C(=O)C3ON2C)cc1 (configuration not stated)	-4	-10	2	5	i	5	2	-1
COc1ccc(Nc2ncc(C(=O)N3CCC(C(N)=O)CC3)c3ccccc23)cc1	2	-1	6	-24	i	0	6	-9
CC(C)C[C@@H](CN=[N+]=[N-])N1CCN(Cc2ccccc2)CCC1=O	-8	8	6	19	i	5	3	-15
COc1ccc(C(=O)O/N=C(\C)c2nccs2)cc1	-7	-2	-7	6	i	4	4	-64
CCOC(=O)c1sc(=NC(=O)c2ccc(S(=O)(=O)N(C)c3ccccc3)cc2)n(C)c1C	-6	-2	-10	7	i	5	6	·
Cn1cccc1CC(=O)NNC(=S)Nc1ccc(F)cc1	0	5	7	26	i	-1	1	-36
COc1cc(NC(=O)C2(C)CCCN2C)cc(OC)c1OC (configuration not stated)	·	·	·	10	·	1	6	-6
O=C(COC(=O)C12CC3CC(CC(O)(C3)C1)C2)NC(=O)NCc1ccco1	8	8	-2	·	·	5	4	8
CCc1c(C)nc2[nH]nc(-c3ccccc3)n2c1=O	2	1	4	·	i	-7	1	-8
NC(=O)c1ccccc1NS(=O)(=O)Cc1ccccc1	-13	-4	-6	-51	i	-3	1	-19
CCCc1nc2ccccc2c(C(=O)O)c1CC	11	6	-1	·	i	7	6	-17
CS(=O)(=O)Nc1ccccc1C(=O)N1CCOCC1	-7	-13	-6	-56	i	-3	10	-18
O=C(c1ccc(-n2cnnn2)cc1)N(C1CCCCC1)C1CCCCC1	-3	10	-11	19	i	-6	1	·
Cc1c(S(=O)(=O)NCCc2ccccc2)c(=O)n(C)c(=O)n1C	-4	-1	-8	6	i	3	7	-3
COc1cc(C2SCC(=O)N2Cc2ccccc2)ccc1O (configuration not stated)	-2	5	-3	2	i	1	0	-7
CCOC(=O)c1c(-c2ccc(OC)cc2)oc2ccc(O)cc12	7	-6	35	1	i	6	6	-16
OCCc1c[nH]c2ccccc12	-7	-7	-5	·	·	2	4	-14

More results:
SMILES	eIF4H FP inh	PABP polyA inh	CSC inhib	HIV Env fusion	Rce1 inhib	MT1-MMP act inh	MT1-MMP act inh RFP	UUG fidelity	others
CCc1ccc(NC(=S)N2CCN(S(=O)(=O)c3ccccc3)CC2)cc1	-4	-1	-3	-168	i	-3	1	-17
Cc1ccc(C(=O)NCCN2CCN(C(=O)c3ccc(C)c(C)c3)CC2)cc1C	5	1	·	-5	i	1	2	-5
O=C(c1ccc(COc2c(F)c(F)cc(F)c2F)o1)N1CCN(c2ccccc2)CC1	3	-10	26	28	i	0	4	3
CCCCn1c(N)c(N(CCC(C)C)C(=O)COC(=O)c2sccc2C)c(=O)[nH]c1=O	·	·	·	-9	·	-14	-13	-11
Oc1ccc(C[C@@H]2CNCCN2CCc2cccc(F)c2)cc1	·	·	-6	6	i	9	5	-19
O=C(NCc1ccncc1)c1csc([C@@H]2C[C@H](O)[C@@H](CO)O2)n1	·	·	·	-5	·	-1	3	-16
CCOC(=O)CNC(=S)SC	-7	-1	-4	-18	i	5	1	-19
O=C(O)CCn1c(O)c(C=C2N=c3ccccc3=N2)sc1=S	4	17	6	47	i	1	-3	-19
O=C(N/N=C/c1cccc(O)c1)c1cc(-c2ccc3c(c2)OCO3)n[nH]1	-6	3	76*	7	·	7	7	·
CC(C)Oc1cccc(C(=O)C2CCCN(C(=O)c3ccc4c(c3)OCO4)C2)c1 (configuration not stated)	-8	11	-2	9	i	3	-3	·
Clc1cccc(CN2CCN(c3nc4nonc4nc3NC3CC3)CC2)c1	13	16	-1	-12	i	0	-1	·
COC(=O)C(NC(=O)c1ccco1)(Nc1cc(C)ccn1)C(F)(F)F (configuration not stated)	-4	2	-8	-102	i	1	2	-10
C=CCOc1ccc(C(=O)N(Cc2ccc(N(C)C)cc2)C2CCS(=O)(=O)C2)cc1 (configuration not stated)	-6	-4	6	·	i	-4	0	7
CCOc1ccc2nc(NS(=O)(=O)c3cccs3)sc2c1	-5	1	9	-6	i	-3	2	-8
CC(C)(C)c1cc[n+](-c2[nH]c(=O)sc2/C=N/NC(=O)c2ccccc2[O-])cc1	?	?	·	-16	i	-20	-1	-21
CCN(CC)S(=O)(=O)c1ccc(C(=O)Nc2nnc(NC(=S)Nc3ccccc3)s2)cc1	1	-10	70	-4	i	0	-1	·

Pulled one by one from the list above:
SMILES	eIF4H FP inh	PABP polyA inh	CSC inhib	HIV Env fusion	Rce1 inhib	MT1-MMP act inh	MT1-MMP act inh RFP	UUG fidelity	others
CCOc1ccc2nc(NS(=O)(=O)c3cccs3)sc2c1	-5	1	9	-6	i	-3	2	-8
O=C(NCc1ccncc1)c1csc([C@@H]2C[C@H](O)[C@@H](CO)O2)n1	·	·	·	-5	·	-1	3	-16
CCCCn1c(N)c(N(CCC(C)C)C(=O)COC(=O)c2sccc2C)c(=O)[nH]c1=O	·	·	·	-9	·	-14	-13	-11
O=C(N/N=C/c1cccc(O)c1)c1cc(-c2ccc3c(c2)OCO3)n[nH]1	-6	3	76*	7	·	7	7	·
CC(C)Oc1cccc(C(=O)C2CCCN(C(=O)c3ccc4c(c3)OCO4)C2)c1 (configuration not stated)	-8	11	-2	9	i	3	-3	·
